Screens: PubChem, National Center for Advancing Translational Sciences (NCATS)
Rango complex inh: qHTS Assay for Inhibitors of Rango (Ran-regulated importin-beta cargo) - Importin beta complex formation; Importin subunit beta-1 (Homo sapiens), Q14974; Rango CFP/YFP FRET sensor + importin beta, 45 min; Potency, µM (doses to about 92.2 µM), for the others: at the top dose inhibition of complex formation; 340,000 compounds, 0.031% hits; AID 540263, 2011; active = rising FRET ratio curve, often small or poorly fitted; inconclusive = mostly compound fluorescence or quenching in the first reads; inactive = flat curves in all reads;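 further: potency means the concentration at half of the fitted maximal effect; 0% = DMSO wells and 100% = buffer wells lacking importin beta; nearly all actives have a fitted effect of over 15% in size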
Target sequence (Q14974 whole entry, looked up): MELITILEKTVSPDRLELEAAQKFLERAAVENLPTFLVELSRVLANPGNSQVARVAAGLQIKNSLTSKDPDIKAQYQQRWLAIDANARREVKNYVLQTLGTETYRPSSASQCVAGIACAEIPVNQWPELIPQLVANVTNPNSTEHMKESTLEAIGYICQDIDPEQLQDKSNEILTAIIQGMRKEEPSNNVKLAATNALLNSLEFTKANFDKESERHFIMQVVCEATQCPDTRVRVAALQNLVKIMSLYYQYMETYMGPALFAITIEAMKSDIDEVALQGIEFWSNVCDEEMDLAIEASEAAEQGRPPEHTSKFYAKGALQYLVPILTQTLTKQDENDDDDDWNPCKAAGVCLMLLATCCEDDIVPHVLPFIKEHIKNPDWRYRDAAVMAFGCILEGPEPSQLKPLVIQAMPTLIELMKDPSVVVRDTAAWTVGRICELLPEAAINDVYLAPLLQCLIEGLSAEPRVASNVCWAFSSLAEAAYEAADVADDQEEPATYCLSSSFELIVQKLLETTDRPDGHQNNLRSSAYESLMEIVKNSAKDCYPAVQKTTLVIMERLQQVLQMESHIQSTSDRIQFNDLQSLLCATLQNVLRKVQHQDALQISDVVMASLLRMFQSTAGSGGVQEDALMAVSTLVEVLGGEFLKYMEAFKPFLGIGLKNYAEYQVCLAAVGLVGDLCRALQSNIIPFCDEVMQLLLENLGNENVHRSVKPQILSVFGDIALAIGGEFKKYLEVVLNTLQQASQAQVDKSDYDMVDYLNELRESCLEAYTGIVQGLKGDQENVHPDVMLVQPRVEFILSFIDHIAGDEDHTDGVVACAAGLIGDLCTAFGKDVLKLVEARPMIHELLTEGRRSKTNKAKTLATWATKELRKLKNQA
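FRET biosensor Rango (snurportin 1 IBB between N-terminal EYFP and C-terminal Cerulean), 50 nM in PBS/1 mM DTT/0.02% Tween-20/0.1% BSA, preincubated 5 min RT with compound; 0.125 microM importin beta added, 45 min RT, CFP/YFP FRET ratio read.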
miR-21 reporter: qHTS Assay for Modulators of miRNAs and/orActivators of miR-21. 340,000 tested, under 10 active. AID 2288, 2010. Potency, µM (doses to about 38.3 µM), for inactives: at the top dose reporter change, positive = more light. HeLa miR-21 FLuc reporter, luciferase, 48 h; active = well fitted rising curve with a large enough effect; inconclusive = small, poorly fitted or top-dose-only effect; inactive = no such curve, though single readings can be large or run the other way;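 further: % of control where 0% means no effect; miR-21 action dims this reporter so a rising signal means less miR-21 action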
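Luminescence from a firefly luciferase reporter carrying a miR-21 binding site downstream, stably expressed under a CMV promoter in HeLa cells that make miR-21 endogenously, reports miRNA modulation after 48 h compound exposure up to approximately 40uM final.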
Rango dissoc inh: qHTS Assay for Inhibitors of RanGTP induced Rango (Ran-regulated importin-beta cargo) - Importin beta complex dissociation; Snurportin-1 (Homo sapiens) + GTP-binding nuclear protein Ran (Homo sapiens) + Importin …; Biochemical FRET Rango-importin beta, RanGTP-induced dissociation; Potency, µM (top dose mostly 46.1 µM), for the others: at the highest dose activity change, negative = inhibition; 340,000 compounds, 0.071% hits; AID 540253, 2011; active means falling FRET ratio curve, often poorly fitted, with flat reads before Ran was added; inconclusive means other falling curves, or compound fluorescence or quenching; inactive means flat or rising ratio curve;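 further: potency means the concentration at half of the fitted maximal effect; % of control where 0% means no effect; nearly all actives have a fitted effect of over 45% in size; -100% = wells without RanGTP and RCC1; the record marks most hits as doubtful in a second field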
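Compounds preincubate 5 min with complex of recombinant Rango and importin beta in PBS with 1 mM DTT. Ran (0.6 uM) loaded with 2 mM GTP plus 0.2 uM RCC1 starts dissociation; FRET is recorded 45 min later.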
GLA inh pH 4.5: qHTS Assay for Inhibitors of Human alpha-Galactosidase at pH 4.5; Alpha-galactosidase A (Homo sapiens), P06280; purified enzyme, 4-MU-alpha-Gal fluorescence, pH 4.5; activity change, negative = inhibition, % at 105 µM; AID 1467, 2008; 230,000 tested, under 10 active; inconclusive = small, poorly fitted or top-dose-only inhibition, or a rising curve; inactive = flat fitted curve, though single readings scatter; no compound was filed as active;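 further: 0% = full activity with enzyme and -100% = basal without enzyme; dose as in the result columns while the protocol names 77 µM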
* marks the source's active call; other numbers are inactive results; ? = inconclusive; nt = no result given; & = joins results of further samples. This is a subset; the hit share may differ from the screen's.

SMILES	Rango complex inh	miR-21 reporter	Rango dissoc inh	GLA inh pH 4.5
Cc1ccc2nc(SC(C)C(=O)N3CCCCC3)[nH]c2c1 (centres undefined)	0.9%	-40%	-4%	-7
Cc1nn(C)c(C)c1S(=O)(=O)N(CC(=O)NCCCN1CC(C)CC(C)C1)c1ccc(C(C)C)cc1 (centres undefined)	-0.1%	0%	0%	nt
Brc1ccc2[nH]c3c(c2c1)CCC3	4.1%	16%	-6%	-10
O=C(COc1ccc(Cl)cc1)NNC(=O)c1ccc(=O)[nH]c1	-15%	nt	-6%	nt
O=C(Nc1ccccc1Br)c1ccc2nccnc2c1	-2.7%	-26%	13%	nt
O=C(NC(=O)N1CCCCC1)c1ccc(Cl)cc1	-5.0%	-8%	3%	nt
Cn1ccnc1C(O)c1ccco1 (centres undefined)	-1.6%	-4%	8%	1
Clc1ccc(Nc2nc(N3CCOCC3)nc(N3CCOCC3)n2)cc1Cl	0.3%	4%	18%	nt
COc1ccc(C2c3[nH]c4ccccc4c3C[C@H]3C(=O)N(CCCO)CC(=O)N23)c(OC)c1 (some centres undefined)	-2.8%	0%	5%	nt
CCOC(=O)CC(=O)CSc1ncc(C(=O)OCC)c(N)n1	3.8%	-9%	-12%	1
CN1CCN(C=NC2=NN(c3cccc(C(F)(F)F)c3)CC2)CC1	0.7%	-11%	-7%	-2
O=C(CN1CCN(Cc2ccccc2)CC1)NC(=O)NCc1ccco1	-0.1%	-7%	-9%	7
CC(=O)c1cccc(OC(=O)Oc2cccc(C(C)=O)c2)c1	0.1%	nt	16%	nt
O=C(CSc1ncccn1)N1CCN(Cc2ccccc2)CC1	-1.4%	-10%	0%	1
S=C(NCCc1ccccc1)N1CCn2cccc2C1c1ccncc1 (centres undefined)	6.9%	-4%	-4%	7
CC(Oc1ccc(Cl)cc1)C(=O)Nc1ccccc1C(=O)N1CCOCC1 (centres undefined)	-3.3%	-1%	-6%	nt
COC(=O)c1ccccc1NC(=O)CSc1nnc(C(CO)NC(=O)c2ccccc2Cl)n1C (centres undefined)	6.4%	-4%	1%	2
O=C(O)C1CCN(C(=O)CSc2nc3ccccc3c(=O)n2-c2ccc(Cl)cc2)CC1	1.5%	-1%	-4%	nt
FC(F)(F)c1ccc(CSc2nccn2-c2ccccc2)cc1	4.5%	-2%	8%	0
CCC1(c2ccc(F)cc2)NC(=O)N(CC(=O)Nc2ccc3c(c2)OCCO3)C1=O (centres undefined)	6.2%	nt	13%	nt
N=c1n(CC(=O)c2ccc([N+](=O)[O-])cc2)c2ccccc2n1Cc1ccccc1	?	-12%	0%	-6
CCc1cc(=O)oc2cc3oc(C)c(C)c3cc12	-5.7%	-5%	-2%	5
COCCSc1nnc(NC(=O)CCS(=O)(=O)Cc2ccccc2)s1	8.1%	6%	0%	nt
CCCCn1c(=N)n(CC(O)c2ccccc2)c2ccccc21 (centres undefined)	-0.1%	7%	-9%	1
CN=C(Nc1cccnc1)c1cccc(C(F)(F)F)c1	-3.3%	-7%	-9%	nt
O=C(OCC(=O)N(C1CCCCC1)C1CCCCC1)c1ccccc1O	-1.2%	7%	-11%	nt
Cc1nc2ccccn2c1C(=O)N/N=C/c1ccc(CNC(=O)C(=O)Nc2ccccc2)o1	0.5%	-16%	25%	3
Cc1ccc(Cl)cc1NC(=O)Nn1cnnc1	-2.6%	-1%	-1%	nt
COC(=O)c1nc[nH]c1[N+](=O)[O-]	2.5%	nt	-1%	nt
COc1ccc(C(CNS(=O)(=O)c2cccc(F)c2)N2CCCC2)cc1 (centres undefined)	-5.9%	nt	-4%	nt
C=CCn1c(=O)c(C(=O)Nc2ccccc2C)c(O)c2ccccc21	4.5%	-22%	29%	nt
Clc1ccc(CON/C=N/c2ncnc3sccc23)c(Cl)c1	-0.8%	3%	0%	-2
Cc1ccc(CNC(=O)CSc2nc(=O)n3ccccc3n2)cc1	0.9%	nt	25%	nt
O=C(Nc1ccc(Cl)c(Cl)c1)N(CCCN1CCOCC1)Cc1cccnc1	0.0%	-2%	0%	6
CCOc1ccccc1C(=O)NCCCCNC(=O)c1ccccc1OCC	-1.6%	nt	11%	nt
COCCNc1cc(C)nc2c3c(C)cc(C)nc3nn12	?	1%	?	?
Cc1ccc(NC(=O)c2ccc(F)cc2)nc1	-2.9%	-1%	-4%	-2
CCN(CC(=O)NCC1CCCO1)S(=O)(=O)c1ccc(Cl)cc1 (centres undefined)	-0.4%	-2%	3%	nt
COc1ccc(C(C)=NNC(=O)c2cccc(S(=O)(=O)N3CCCC3)c2)cc1	-2.9%	nt	-6%	nt
CC(C)Cc1nnc(NC(=O)C2CCCC2)s1	0.4%	-23%	-7%	nt
Cc1ccc(-c2c[n+](CC(=O)c3cccs3)c3n2CCC3)cc1	-0.8%	23%	10%	3
NC(=O)NN=C(C1CC1)C1CC1	-2.8%	nt	-22%	nt
COCCNC(=O)C(c1ccc(F)cc1)N(C(=O)CCC(=O)Nc1ccccn1)c1ccc(C)cc1 (centres undefined)	-1.3%	-1%	2%	nt
Cc1ccc(S(=O)(=O)N(C)C)cc1NC(=O)COC(=O)CCNS(=O)(=O)c1ccccc1	-3.9%	nt	20%	nt
COc1ccc(CNS(=O)(=O)c2csc(C(N)=O)c2)cc1OC	3.5%	-2%&-1%	0%	nt
CCC(C(=O)OCn1nnc2ccccc2c1=O)c1ccccc1 (centres undefined)	2.3%	-3%	-1%	-12
C=CCc1c(C)nc(SC(C)C)[nH]c1=O	4.0%	-2%	-8%	-1
CCCS(=O)(=O)c1c(S(=O)(=O)CCC)c2ccc(C(N)=O)cn2c1C(=O)c1ccccc1	?	-8%	20%	nt
O=C(NCCCN1CCCCC1)C1CC(=O)N(CCc2ccccc2)C1 (centres undefined)	-2.0%	-3%	?	nt
Cc1cc(C)n(Cc2ccc(C(=O)NCc3ccco3)o2)n1	1.5%	-1%	-2%	1
Cc1cc(C)n(Cc2ccc(C(=O)O)o2)n1	3.9%	-1%	-9%	4
CCc1ccc(/C=C2\Oc3cc(OS(C)(=O)=O)ccc3C2=O)cc1	?	-6%	8.2µM*	-4
Cc1ccc(C2CC(=O)C(C=NCCN3CCN(C(=S)Nc4ccc(F)cc4)CC3)=C(O)C2)cc1 (centres undefined)	5.1%	0%	-1%	0
O=C(COC(=O)c1ccc(S(=O)(=O)N2CCOCC2)cc1)Nc1ccccc1F	4.9%	nt	1%	nt
CC(=O)c1c(C)cc(C)c(CSc2nnc(-c3ccco3)o2)c1C	1.0%	4%	7%	-5
Oc1ccc(Nc2nc3ccccc3nc2Nc2ccc(O)cc2)cc1	?	?	?	-3
Cc1ccc2c(c1)N(CCC(=O)NCc1ccco1)C(=O)CO2	?	-1%	9%	-15
O=C(CN1N=C(c2ccccc2)CCC1=O)NCCN1CCc2ccccc2C1	-1.0%	-7%	-7%	-5
O=C(CCc1nc(-c2ccccc2F)no1)NCCN1CCOCC1	-0.8%	-5%	-7%	-2
CCOC(=O)[C@H]1[C@H]2COc3cc(OC)ccc3[C@@H]2N2C(=O)c3cc(F)c(F)cc3NC(=O)[C@@]12C	0.2%	nt	3%	nt

Additional entries
SMILES	Rango complex inh	miR-21 reporter	Rango dissoc inh	GLA inh pH 4.5
CC[C@]12c3[nH]c4ccc(OC)cc4c3CCN1C(=O)C(CC(=O)NCCc1ccccn1)C[C@@H]2C(=O)N1CCN(C(=O)C2CC2)CC1 (some centres undefined)	-0.4%	nt	-2%	nt
COc1ccc(Cl)cc1C(=O)NCCCn1ccnc1	4.9%	0%	-3%	nt
O=C(c1cnn2c(C(F)(F)F)cc(-c3cccs3)nc12)N1CCCC1	?	-2%	?	-4
Cc1ccc(Cl)cc1N1CCN(Cc2nnnn2Cc2ccco2)CC1	0.0%	-5%	8%	-23
Cc1onc(-c2ccccc2)c1C(=O)Nc1nnc(CC(C)(C)C)s1	-1.0%	-7%	14%	nt
CCOC(=O)N1CCN(C(=S)NC(=O)c2c(-c3c(Cl)cccc3Cl)noc2C)CC1	4.1%	2%	5%	4
CN(C)C1=NCCN1CCCCc1ccccc1	-3.6%	nt	-11%	nt
Cc1ccc(OCC(=O)N(c2ccccn2)C2CCCCC2)c(C)c1	-4.4%	-10%	1%	-7
CCOc1ccc(Nc2nc(Cc3nnc(SCC(=O)NC4CCCCC4)n3C)cs2)cc1	-0.5%	0%	-8%	11
CC(=O)Nc1ccc(SCC(=O)Nc2cc(C)on2)cc1	-1.2%	-3%	2%	-3
COC(=O)c1c([N+](=O)[O-])c(OC)c(OC)c(OC)c1[N+](=O)[O-]	1.1%	1%	7%	-15
COc1ccc(CNC(=S)Nc2ccccc2)cc1	4.8%	-19%	1%	nt
CCCN(C(=O)COC(=O)c1nc2nc(C)cc(C)n2n1)C1CCS(=O)(=O)C1 (centres undefined)	-3.0%	nt	-19%	nt
Cn1cnnc1-c1cccc(NC(=O)c2cc(F)c(F)cc2Cl)c1	0.5%	-1%	-3%	3
CNc1nc2[nH]c(=O)c3c(c2s1)OC(N)=C(C#N)C3c1ccccc1 (centres undefined)	?	-6%	-7%	1

Record cards, from the list above. Screens in order: Rango complex inh	miR-21 reporter	Rango dissoc inh	GLA inh pH 4.5
`Cc1ccc2nc(SC(C)C(=O)N3CCCCC3)[nH]c2c1` (centres undefined) reads 0.9%	-40%	-4%	-7
`O=C(NCCCN1CCCCC1)C1CC(=O)N(CCc2ccccc2)C1` (centres undefined) reads -2.0%	-3%	?	nt
`CC(=O)Nc1ccc(SCC(=O)Nc2cc(C)on2)cc1` reads -1.2%	-3%	2%	-3
`O=C(c1cnn2c(C(F)(F)F)cc(-c3cccs3)nc12)N1CCCC1` reads ?	-2%	?	-4
`O=C(CN1N=C(c2ccccc2)CCC1=O)NCCN1CCc2ccccc2C1` reads -1.0%	-7%	-7%	-5

(further entries)
SMILES	Rango complex inh	miR-21 reporter	Rango dissoc inh	GLA inh pH 4.5
O=C1CN(S(=O)(=O)c2cccc(Cl)c2Cl)c2ccccc2N1	-3.5%	-4%	-11%	nt
CCOc1ccc(CNC(=O)C2CCN(C(=O)N3CC(C)Oc4ccccc43)CC2)cc1 (centres undefined)	-4.1%	9%	4%	nt
COCCn1c(=O)[nH]c2cc(C(=O)NCCN3CCN(c4ccccc4)CC3)ccc2c1=O	7.6%	2%	-9%	?
CC1CCc2cc(F)ccc2N1C(=O)CCl (centres undefined)	-0.7%	?	-4%	1
CCOC(=O)Cn1nc(C)cc1NC(=O)c1cccnc1	7.7%	0%	-5%	5
Cc1ccc(S(=O)(=O)N(C)CC(=O)N2CCN(C(=O)c3ccco3)CC2)cc1	-1.1%	0%	22%	2
CC(C)NC(=O)c1cc(-c2ccco2)nn1-c1ccc(Cl)cc1	-2.4%	-7%	-9%	2
O=C(COc1ccccc1)Nc1cccc(-c2nc3cc4ccccc4cc3[nH]2)c1	-1.2%	26%	-10%	3
Cc1nc(SCc2nc3ccccc3[nH]2)c2oc3cc([N+](=O)[O-])ccc3c2n1	-0.2%	nt	12%	nt
CC1CCCC(C)N1C(=O)CSc1nnnn1C1CCCC1 (centres undefined)	0.2%	-26%	19%	nt
O=S(=O)(c1ccc(F)cc1)c1nc(-c2ccc(F)cc2)oc1NCCN1CCOCC1	-0.1%	-15%	-10%	10
CCOC(=O)C1(C)C(C(=O)OC)=C(c2ccc(OC)cc2)c2ccccc2N1C(=O)OC (centres undefined)	-0.3%	nt	-3%	-18
O=C(c1ccc(=O)oc1)N1CCN(c2ccc(F)cc2)CC1	2.8%	-9%	-20%	-15
Cc1ccc(NC(=O)CSc2nc3ccccc3c3nc(CCn4cncc4C)nn23)c(C)c1	0.6%	-4%&-8%	25%	6
O=C(COC(=O)Cc1ccccc1F)Nc1ccc(F)cc1F	-1.9%	0%	11%	0
CCN(CC)c1ccc(-c2nc3cnccc3n2C)cc1	-1.5%	-64%	-10%	-3
